# GIRK2 act = opens human GIRK2 potassium channels | calls only for hits at 25 µM | HEK293-GIRK2 thallium flux, Thallos fluorescence | 63,000 tested, 0.05% active;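 active = among the strongest 0.2% of first-round signals and kept after retests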;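 note: first round at about 10 µM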
# Calls only; i = inactive.
SMILES,GIRK2 act
O=C(NCC#CCN1CCCCC1)c1cnccn1,i
O=C(CSCc1ccccc1)N1CC2CC(C1)c1cccc(=O)n1C2 (stereo not drawn),i
COc1ccc(/C=C2\Oc3c(ccc(OC(=O)N(C)C)c3C)C2=O)c(OC)c1,i
COc1ccc(Oc2coc3cc(OC(=O)N(C)C)ccc3c2=O)cc1,i
CN(C)CC#CCNC(=O)NCc1cccs1,i
N#CC(C#N)=Cc1cc(O)c(O)c([N+](=O)[O-])c1,i
O=C(NCc1ccccc1Cl)c1cc2cccnc2n(Cc2ccccc2F)c1=O,i
COC(=O)N1CCN(C(=O)Cc2ccc(Cl)c(Cl)c2)C(CN2CCCC2)C1 (stereo not drawn),i
O=C(Cc1ccc(F)cc1)N1CC2CC(C1)c1cccc(=O)n1C2 (stereo not drawn),i
COc1ccc(OCC(=O)N2CCOCC2CN(C)C)cc1 (stereo not drawn),i
O=C(c1cc(-c2cccs2)[nH]n1)N1CC2CC(C1)c1cccc(=O)n1C2 (stereo not drawn),i
Cn1nc(-c2ccccc2)cc1C(=O)N1CC2CC(C1)c1cccc(=O)n1C2 (stereo not drawn),i
CC(=O)NCC#CCN(C(C)C)C(C)C,i
O=C(NCC#CCN1CCCC1)c1ccc(Br)cc1,i
CN(C)CC#CCNC(=O)CC1CCCC1,i

# Brought forward from above: seven entries, followed by the next part.
SMILES,GIRK2 act
O=C(Cc1ccc(F)cc1)N1CC2CC(C1)c1cccc(=O)n1C2 (stereo not drawn),i
COc1ccc(OCC(=O)N2CCOCC2CN(C)C)cc1 (stereo not drawn),i
O=C(c1cc(-c2cccs2)[nH]n1)N1CC2CC(C1)c1cccc(=O)n1C2 (stereo not drawn),i
Cn1nc(-c2ccccc2)cc1C(=O)N1CC2CC(C1)c1cccc(=O)n1C2 (stereo not drawn),i
CC(=O)NCC#CCN(C(C)C)C(C)C,i
O=C(NCC#CCN1CCCC1)c1ccc(Br)cc1,i
CN(C)CC#CCNC(=O)CC1CCCC1,i
CC(C)c1ccc(OCC(=O)N2CCN(CCNC(=O)c3ccsc3)CC2)cc1,i
COc1ccc(NC(=O)c2cc3cccnc3n(Cc3ccc(F)cc3)c2=O)cc1OC,i
COCCNC(=O)NCC#CCN(C(C)C)C(C)C,i
O=C(NC1CCCCC1)c1cc2cccnc2n(Cc2ccc(Cl)cc2)c1=O,i

# Part of the list above, set out differently:
Compound | GIRK2 act
CC(C)c1ccc(OCC(=O)N2CCN(CCNC(=O)c3ccsc3)CC2)cc1 | i
COc1ccc(NC(=O)c2cc3cccnc3n(Cc3ccc(F)cc3)c2=O)cc1OC | i

# Only part of the results is shown. The share of hits here may be higher or lower than overall.
